# Compound activity (PubChem)
# HepG2 viability = viability loss in HepG2 hepatoma cells – cell-based, ATP luminescence, cherry-pick, activator set 2, cytotoxicity control, dose response (AID 1053143) | HepG2 viability, CellTiter-Glo ATP luminescence, 72 h | activity change, negative = cytotoxicity, % at the top dose, mostly 26 µM; hits show AC50 in µM | 3,400 tested, 3.7% active;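 active = fitted AC50 at most twice the highest valid dose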;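 note: 0 = neutral control and -100 = positive control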
# Starred values were filed as active, the others as inactive; [ ] = dose if it differs, or a comment. These rows are one share of the data (hit frequency here may not be typical).
SMILES,HepG2 viability
COc1cccc(/C=C/c2ccc3cccc(O)c3n2)c1OC,-17%
CCOc1ccc2cc(C#N)c(SCC(=O)OC)nc2c1,9%
CCN(CC)c1ccc(/C=N/NC(=O)c2ccoc2C)c(O)c1,9µM*
CC(C)c1ccc(N=C2N=C(N)c3ccccc32)cc1,-9%
COc1cccc(-c2noc(-c3ccc4c(c3)OCO4)n2)c1,-23%
O=C(Nc1ccccc1F)Nc1ccccc1F,16%[12 µM]
Cc1cccc(C(=O)c2c(N)sc3c2CCCC3)c1,-5%[12 µM]
O=C(Nc1nc2c(ccc3ccccc32)s1)c1ccco1,-32%
N/C(=N\OC(=O)c1ccc(Cl)cc1Cl)c1ccncc1,-7%
Cc1cc(NC(=O)c2ccc(OCC3CCCO3)cc2)ccc1Br (stereo not given),26µM*
CC(=O)Nc1ccc2c(c1)ncn2-c1ccc(C)cc1,-13%
CC(=O)Nc1cccc(-n2nnc(SCC(=O)c3ccccc3)n2)c1,-13%
Cc1cc(C(=O)CN2C(=O)NC3(CCCCC3)C2=O)c(C)n1Cc1ccco1,-15%
CC(C)(C)c1cc(-c2n[nH]c(=S)n2-c2ccccc2F)n[nH]1,-5%
CC(C)(C)c1cc(NC(=O)c2cccs2)no1,-30%
COc1ccc2cc3cc(C(=O)N4CCCCC4C)oc3nc2c1 (stereo not given),0%
CC(/C=N/NC(=O)c1cccnc1)=C\c1ccccc1,-19%
Cc1cccc(/C=C(\c2nc3ccccc3[nH]2)S(=O)(=O)c2ccccc2)c1,11µM*
CCOc1ccc(S(=O)(=O)Nc2ccc(C(=O)NN)cc2)cc1,18%
Cn1nnc(NC(=O)C(c2ccccc2)c2ccccc2)n1,1%
C[C@@H](CO)NC(=O)c1ccc2c3n(nc2c1)-c1ccc(Cl)cc1CO3,-15%
Cc1ccccc1Cn1nnc(-c2cccc(C(=O)O)c2)n1,-9%
COc1ccccc1NC(=O)CCC(=O)Nc1nnc(C2CCCCC2)s1,-8%
CCCC(=O)n1nc(-c2ccc(C)cc2)nc1NCc1ccco1,-6%
Cc1cc(NC(=O)c2ccc3nccnc3c2)ccc1Br,-13%
Cc1ccc(/C=C2/CCc3c([nH]c4ccccc34)C2=O)cc1,-19%
Cc1ccc(OCC(=O)Nc2ccc(Cl)cc2)c([N+](=O)[O-])n1,15%
Cc1nnsc1C(=O)Nc1cc(Cl)ccc1Cl,22%
CCOC(=O)Cc1csc(NC(=O)c2ccc(S(=O)(=O)N(CCOC)CCOC)cc2)n1,-21%
Cc1ccc2c(c1)COc1c3ccc(C(=O)NCCO)cc3nn1-2,22%
CCn1cc(S(=O)(=O)CC(=O)Nc2ccc3c(c2)OCO3)c2ccccc21,-5%
CC(C)(C)c1nnc(N/N=C/c2cc(Br)ccc2O)n(N)c1=O,5.8µM*
O=C(Nc1ccccc1N1CCN(c2ccccc2)CC1)c1ccccc1,-3%
O=C(CN1CCCCC1)Nc1scc2c1c(=O)oc1ccccc12,12%
Cc1nn(C)cc1CNC(=O)Nc1ccc(Cl)c(Cl)c1,-6%
COc1ccc(NC(=O)Nc2ccccc2SC)cc1,-25%
COc1cccc2sc3ccc(C#Cc4ccc(N)cc4)cc3c(=O)c12,-5%
CC1CCC2(CC1)NC(=O)N(CC(=O)Nc1sc3c(c1C(N)=O)CCC3)C2=O (stereo not given),-3%
CC(=O)Nc1ccc(C(=O)COC(=O)c2cccs2)c(F)c1,8%
CC(=O)Nc1ccc(OCc2cccc([N+](=O)[O-])c2)cc1,-13%

# A second format for part of the listing above.
COc1cccc2sc3ccc(C#Cc4ccc(N)cc4)cc3c(=O)c12
  HepG2 viability: -5%
CC1CCC2(CC1)NC(=O)N(CC(=O)Nc1sc3c(c1C(N)=O)CCC3)C2=O (stereo not given)
  HepG2 viability: -3%

# Taken from the results shown (30 entries):
SMILES,HepG2 viability
CC(=O)Nc1ccc2c(c1)ncn2-c1ccc(C)cc1,-13%
CC(=O)Nc1cccc(-n2nnc(SCC(=O)c3ccccc3)n2)c1,-13%
Cc1cc(C(=O)CN2C(=O)NC3(CCCCC3)C2=O)c(C)n1Cc1ccco1,-15%
CC(C)(C)c1cc(-c2n[nH]c(=S)n2-c2ccccc2F)n[nH]1,-5%
CC(C)(C)c1cc(NC(=O)c2cccs2)no1,-30%
COc1ccc2cc3cc(C(=O)N4CCCCC4C)oc3nc2c1 (stereo not given),0%
CC(/C=N/NC(=O)c1cccnc1)=C\c1ccccc1,-19%
Cc1cccc(/C=C(\c2nc3ccccc3[nH]2)S(=O)(=O)c2ccccc2)c1,11µM*
CCOc1ccc(S(=O)(=O)Nc2ccc(C(=O)NN)cc2)cc1,18%
Cn1nnc(NC(=O)C(c2ccccc2)c2ccccc2)n1,1%
C[C@@H](CO)NC(=O)c1ccc2c3n(nc2c1)-c1ccc(Cl)cc1CO3,-15%
Cc1ccccc1Cn1nnc(-c2cccc(C(=O)O)c2)n1,-9%
COc1ccccc1NC(=O)CCC(=O)Nc1nnc(C2CCCCC2)s1,-8%
CCCC(=O)n1nc(-c2ccc(C)cc2)nc1NCc1ccco1,-6%
Cc1cc(NC(=O)c2ccc3nccnc3c2)ccc1Br,-13%
Cc1ccc(/C=C2/CCc3c([nH]c4ccccc34)C2=O)cc1,-19%
Cc1ccc(OCC(=O)Nc2ccc(Cl)cc2)c([N+](=O)[O-])n1,15%
Cc1nnsc1C(=O)Nc1cc(Cl)ccc1Cl,22%
CCOC(=O)Cc1csc(NC(=O)c2ccc(S(=O)(=O)N(CCOC)CCOC)cc2)n1,-21%
Cc1ccc2c(c1)COc1c3ccc(C(=O)NCCO)cc3nn1-2,22%
CCn1cc(S(=O)(=O)CC(=O)Nc2ccc3c(c2)OCO3)c2ccccc21,-5%
CC(C)(C)c1nnc(N/N=C/c2cc(Br)ccc2O)n(N)c1=O,5.8µM*
O=C(Nc1ccccc1N1CCN(c2ccccc2)CC1)c1ccccc1,-3%
O=C(CN1CCCCC1)Nc1scc2c1c(=O)oc1ccccc12,12%
Cc1nn(C)cc1CNC(=O)Nc1ccc(Cl)c(Cl)c1,-6%
COc1ccc(NC(=O)Nc2ccccc2SC)cc1,-25%
COc1cccc2sc3ccc(C#Cc4ccc(N)cc4)cc3c(=O)c12,-5%
CC1CCC2(CC1)NC(=O)N(CC(=O)Nc1sc3c(c1C(N)=O)CCC3)C2=O (stereo not given),-3%
CC(=O)Nc1ccc(C(=O)COC(=O)c2cccs2)c(F)c1,8%
CC(=O)Nc1ccc(OCc2cccc([N+](=O)[O-])c2)cc1,-13%

# Continued.
SMILES,HepG2 viability
CCc1ccc(Nc2ncc3c(n2)CC(C)(C)CC3=O)cc1,0%
O=C(c1cccs1)N1CCC(c2ccccc2)C1 (stereo not given),-14%
CCOc1ccccc1NC(=O)CN1C(=O)C(C)SC(C)C1=O (stereo not given),-18%
CCc1noc(C)c1C(=O)NCCc1ccccc1,-6%
CC(C)c1cc(C(=O)NCCc2ccccc2)no1,-19%
Oc1sc(C=Nc2ccc(F)cc2)c2ccccc12,-18%
c1ccc(-c2ccc(OCCCn3cncn3)cc2)cc1,-12%
CCOC(=O)c1sc(Nc2ccccc2Cl)nc1C,-13%
Cc1ccc(-n2nc3c(n2)/C(=N/O)CC/C3=N\O)cc1,-13%
O=C(Oc1ccc(-c2cnc3ccccc3n2)cc1)c1ccco1,9%[12 µM]
C=CCSc1nn2c(=O)c3ccccc3nc2s1,-13%
O=C(/C=C\Nc1ccc2c(c1)OCO2)c1ccc2c(c1)OCO2,-15%
CN(C)c1ccc(C#Cc2ccc3cc(CCCO)oc(=O)c3c2)cc1,2%
O=c1[nH]c(-c2ccccc2)nnc1-c1ccccc1,-10%
O=C(N/N=C/c1cccc(OCc2ccccc2)c1)c1cccs1,-11%
Cc1cc(NC(=O)c2cc3cccc([N+](=O)[O-])c3[nH]2)ccc1F,-34%
CCc1nnc(NC(=O)/C=C/c2ccco2)s1,-1%
Cc1ccc(/C=N/Nc2ncnc3nc[nH]c23)cc1,-22%
CN1CCCN(C(=O)c2cc(-c3cccc4ccccc34)nc3ccccc23)CC1,-16%
Cn1c(Cn2nnc3ccccc32)nnc1SCC(=O)c1ccccc1F,10%
NC(=O)c1ccccc1NC(=O)c1ccc2c(c1)OCO2,-17%
c1ccc(-c2nc3ccccn3c2-c2ccccc2)cc1,-12%
COc1ccc(N2COC3c4cccc5cccc(c45)C32)cc1 (stereo not given),-14%
Cc1ccc(C(=O)Cn2nnc3ccccc32)cc1C,-10%
O=C(Nc1ccc(Cl)cc1F)c1ccccc1Br,5%
COc1ccc(/C=N/N=C2/SCC(=O)N2Cc2ccccc2)cc1,-26%
O=C(Nc1ccccc1)C(=O)Nc1ccc2c(c1)N(C(=O)C1CC1)CCC2,26µM*
COCCn1c(C)nnc1SCC(=O)Nc1ccccc1[N+](=O)[O-],-7%
COc1cccc(NC(=O)c2ccccc2F)c1,-9%
c1cncc(-c2nc(-c3ccc4c(c3)OCO4)cs2)c1,7%
N=c1cc(C2(O)CCCCC2)n2c(nc3ccccc32)s1,-18%
Cc1ccc(NC(=O)Nc2cccs2)c(Cl)c1,-7%
Cn1cccc1C(=O)OCC(=O)c1ccc(Br)s1,-7%
Cc1nc2ccc(NC(=O)c3ccccc3)cc2s1,-13%
Clc1ccsc1-c1ccc2ccccc2n1,10%
COc1cc(/C=C/c2ccc3cccc(O)c3n2)cc(Cl)c1OC,-24%
Fc1ccc2cnc(-c3ccccc3)cc2c1,-9%
O=C(N/N=C\c1cccc(Cl)c1)c1n[nH]c2c1CCCC2,48%
O=C(O)c1ccc2c(c1)C(=O)N(c1ccc(C(=O)OCC(=O)c3ccccc3)cc1)C2=O,-9%
O=C(NOCc1ccccc1)c1ccccc1,-7%
CCc1ccc(OCc2ccc(C(=O)OC)o2)cc1,-1%
Nc1ccccc1-c1nc2ccccc2s1,-15%
Fc1ccccc1CSc1nnc(-c2cccs2)o1,-20%
COc1ccc(/C=C2\CCC(C3CCCC3)C2=O)cc1OC (stereo not given),-6%
CCOc1ccc2nc(SCC3CC3(Cl)Cl)[nH]c2c1 (stereo not given),-3%
O/N=C/c1ccc2ccccc2n1,-6%
Cc1c(C(=O)Nc2nnc(C3CC3)s2)oc2ccccc12,-10%[12 µM]
O=C(N/N=C\c1ccccn1)c1ccccc1O,-11%
Cc1cccc(-c2noc(-c3ccc(Cl)cc3[N+](=O)[O-])n2)c1,1%
COC(=O)C1=C(Nc2ccccc2NC(=O)c2ccccc2C(=O)O)CSC1,-14%
COc1ccccc1CNC(=O)C1CC2Cn3c(nc4cc(C)c(C)cc43)C2N1C (stereo not given),-5%
CCCCOC(=O)Nc1ccc(C(=O)OC)cc1,-10%
CCc1cc(CNC(=O)CCc2nnc(CCCc3ccccc3)o2)on1,-9%
CC(C)NC(=O)N1CCCN(c2nc3ccc(Cl)cc3s2)CC1,-33%
Cc1cc(C(=O)COC(=O)c2ccc(Cl)c(S(N)(=O)=O)c2)c(C)n1C1CC1,-8%
CC1=C(C(=O)OCc2ccccc2)C(c2ccc(Br)cc2)NC(=O)N1CCCCCC(=O)O (stereo not given),-5%
COc1ccc2cc(CCNC(=O)c3cccs3)c(=O)[nH]c2c1,-6%
CC(=O)Nc1nc(COc2ccc3ccccc3c2)cs1,-41%
Brc1ccc2nc(N3CCCC3)sc2c1,-9%
COc1cccc(-c2nc3n(n2)CCc2ccccc2-3)c1,-17%
Nc1ccc(-c2nc3ccccc3s2)cn1,-8%
c1ccc(CN2CCN(c3nc4ccccc4s3)CC2)cc1,-11%
COc1ccc(CNC(=O)C(=O)NCC(c2ccco2)N2CCOCC2)cc1 (stereo not given),-20%[12 µM]
